High-throughput results (PubChem BioAssay)
AID923: qHTS Assay for Allosteric/Competitive Inhibitors of Caspase-1: Spectroscopic Profiling in AFC Spectral Region; compound fluorescence, AFC spectral region (405/520 nm); almost no hit is shown here; Potency, µM (titrated, usually from 57.5 µM), inactives show at the highest dose fluorescence increase, hits mostly activators; 75,000 tested, 1.1% active; active = well fitted activation curve with a large enough effect; inconclusive = small, poorly fitted or top-dose-only effect;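 also: potency is read from the fitted curve at half-maximal effect; 0% is about no effect; scaled to a free AFC standard on each plate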
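Titrations up to 57 uM read every 20 sec for 3 min (405/520 nm) with 50 nM caspase 1 and 5 uM Ac-WEHD-AFC, pH 7.5 HEPES buffer. Fluorescence-vs-time intercept gave baseline, scaled against on-plate AFC standard.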
Resorufin autofl: qHTS Assay for Spectroscopic Profiling in Resorufin Spectral Region; max dye-equivalent concentration, M; 59,000 tested, 0.04% active; Compound fluorescence, resorufin region 547/598 nm, buffer; hits give high values; active = above 10 nM dye equivalent; inconclusive = 1 to 10 nM; inactive = 1 nM or less; a few of its hits are not listed in these tables; also: highest value over a series up to 38 µM
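Tris 100 mM pH 8.0; compound added, 15 min RT; CCD imager read, ex 547 nm/em 598 nm; signal normalized to resorufin standard curve (six concentrations per plate) as dye-equivalent concentration.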
TSHR ag: qHTS Assay for Agonists of the Thyroid Stimulating Hormone Receptor | Thyrotropin receptor (Homo sapiens), P16473 | HEK293-CNG-TSHR cells (CNG channel as cAMP sensor), membrane potential dye, cAMP | Potency, µM (doses to about 57.1 µM), for inactives: at the top dose activation, actives largely listed as activators | 73,000 tested, 0.48% active | AID 926, 2007; active = well fitted activation curve of enough size with the parental cells flat; inconclusive = any curve in the parental cells; inactive = parental cells flat and receptor cells flat or falling; also: potency is read from the fitted curve at half-maximal effect; % of control where 0% means no effect; weak receptor curves with flat parental cells got no call and are not listed
Target sequence (P16473 whole entry, looked up): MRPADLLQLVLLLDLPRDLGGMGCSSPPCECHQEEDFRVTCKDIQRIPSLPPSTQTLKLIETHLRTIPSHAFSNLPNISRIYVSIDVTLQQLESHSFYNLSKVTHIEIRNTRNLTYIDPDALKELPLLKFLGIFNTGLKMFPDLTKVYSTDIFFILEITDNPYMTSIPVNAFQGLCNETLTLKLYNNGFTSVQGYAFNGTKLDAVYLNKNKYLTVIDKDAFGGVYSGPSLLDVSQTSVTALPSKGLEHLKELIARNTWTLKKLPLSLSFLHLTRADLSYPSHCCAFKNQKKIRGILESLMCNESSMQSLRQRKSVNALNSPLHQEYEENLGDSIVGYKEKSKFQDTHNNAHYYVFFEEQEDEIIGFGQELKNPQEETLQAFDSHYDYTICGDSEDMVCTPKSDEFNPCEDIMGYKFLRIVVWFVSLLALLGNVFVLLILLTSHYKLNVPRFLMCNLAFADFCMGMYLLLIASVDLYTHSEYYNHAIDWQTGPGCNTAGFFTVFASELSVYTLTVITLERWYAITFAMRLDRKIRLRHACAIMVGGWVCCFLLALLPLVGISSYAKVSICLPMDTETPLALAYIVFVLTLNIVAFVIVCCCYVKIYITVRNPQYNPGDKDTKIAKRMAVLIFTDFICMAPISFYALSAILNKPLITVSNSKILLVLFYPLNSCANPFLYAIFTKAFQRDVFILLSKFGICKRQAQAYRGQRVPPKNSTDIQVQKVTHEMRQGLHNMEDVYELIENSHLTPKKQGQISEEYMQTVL
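cAMP rise detected as CNG-channel membrane depolarization by fluorescent dye (emission 590 nm), 30 min after compound, following 60 min dye loading containing 100 uM RO 20-1724 at room temperature. Cells: TSHR/CNG HEK 293, with parental CNG HEK 293 as control.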
A647 fluor: qHTS Assay for Spectroscopic Profiling in A647 Spectral Region. 59,000 tested, under 10 active. max dye-equivalent concentration, M. AID 592, 2007. Compound fluorescence, A647 channel (570/671 nm), Tris buffer; active means above 1 µM dye equivalent; inconclusive means 0.1 to 1 µM; inactive means 0.1 µM or less;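 also: values scaled relative to a standard on each plate; highest value over a series up to 38 µM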
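Tris 100 mM pH 8.0; cpd + A647 stds pin-transferred; 15 min RT; CCD imager, ex 570/em 671. Output = A647-equivalent conc. per cpd conc.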
A488 fluor: qHTS Assay for Spectroscopic Profiling in A488 Spectral Region; compound autofluorescence, A488 spectral region, dye equivalency; hits give high values; 59,000 tested, 0.1% active; max dye equivalency, M; active = above 10 nM dye equivalent; inconclusive = 1 to 10 nM; inactive = 1 nM or less; about half of its hits are not listed in these tables;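 also: highest value over a series up to 38 µM; compound alone in buffer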
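Read-out: relative fluorescence at 480/540 nm, expressed as Alexa 488 dye-equivalent concentration from a six-point A488 standard included per plate. Conditions: 100 mM Tris, pH 8.0; 15 min incubation, room temperature.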
The depositor's hits bear a star; i = inactive; ? = inconclusive; · = not tested or not shown; [ ] = dose if it differs, or a comment. Not all compounds are listed, so the mix of outcomes need not match the whole.

SMILES	AID923	Resorufin autofl	TSHR ag	A647 fluor	A488 fluor
COc1ccc(OC)c(NC(=O)c2c(NC(=O)CNCc3ccco3)sc3c2CCC3)c1	3.2%	·	29%	·	·
C=CCn1c(SCn2nnc3ccccc3c2=O)nnc1-c1ccc(Cl)cc1	1.4%	i	23%	1.9e-09	i
CCOc1ccc(/C(O)=C2/C(=O)C(=O)N(CCCn3ccnc3)C2c2cccs2)cc1Cl (stereo not drawn)	-0.2%	i	34%	8.8e-09	i
COc1ccc(OC)c(NC(=O)CN2CCN(C(=O)c3ccco3)CC2)c1	0.0%	i	1%	1.1e-08	i
Cc1ccc(S(=O)(=O)Nc2nc3ccccc3nc2NCc2ccco2)cc1	17%	i	?	1e-09	i
COc1ccc(S(=O)(=O)N(CCc2ccccc2)CC(=O)O)cc1OC	0.6%	·	8%	·	·
COC(=O)CSc1nnc(-c2ccccc2O)n1-c1ccc(C)cc1	-0.7%	i	?	2.1e-09	i
COc1ccc(OCc2nc(N)nc(Nc3cccc(C)c3C)n2)cc1	-1.2%	i	11%	5.2e-08	i
O=C1CC(c2ccccc2)n2nc(NC(=O)c3cccnc3)nc2N1 (stereo not drawn)	-0.7%	i	5%	4.6e-08	i
CCCOc1ccc(N2C(=O)CC(N3CCC(C(=O)OCC)CC3)C2=O)cc1 (stereo not drawn)	-0.4%	·	-4%	·	·
O=C(O)/C=C\C(=O)Nc1cccc2c1-c1ccccc1C2=O	-4.3%[11.5 µM]	i	18%[11.4 µM]	2.2e-08	i
Cc1ccccc1-c1nc(-c2cccnc2)no1	-2.6%	i	?	4.1e-09	i
Cc1ccc(S(=O)(=O)CCc2nnc(NC(=O)c3ccccn3)s2)cc1	-0.1%	i	-1%	5e-08	i
O=C(OCCCC(=O)N1CCOCC1)c1ccccc1	1.3%	i	2%	1.8e-08	i
COc1ccc(C(=O)COc2ccc(NC(C)=O)cc2)cc1	2.2%	i	6%	1e-09	i
CCOCCCNC(=O)C(c1ccc(C)cc1)N(Cc1ccc2c(c1)OCO2)C(=O)CNC(C)=O (stereo not drawn)	0.3%	i	2%	2.3e-08	i
Cc1cccc(C(=O)Nc2ncc(CN3CCOCC3)s2)c1	0.7%	i	-1%	9.9e-09	i
Clc1ccc(-c2nnc(-c3ccccc3Cl)o2)cc1	0.8%	·	?	·	·
CN(C)C=Nc1nonc1-c1ncn[nH]1	-1.5%	i	2%	2.7e-08	i
Cc1ccc(NCCNc2ccc(C)cc2)cc1	0.0%	i	-5%	1.5e-08	i
COc1ccccc1NC(=O)CCSc1nnnn1C	1.7%	i	-1%	1e-09	i
O=C(CCn1c(=O)oc2ccccc21)N1CCN(c2ccccc2Cl)CC1	0.1%	i	·	1e-09	i
Cc1cc(NC(=O)CC23CC4CC(C2)CC(CC(=O)Nc2cc(C)on2)(C4)C3)no1	-0.9%	i	17%	1.2e-08	i
O=C(NCc1cccnc1)c1cn(-c2ccccc2)nc1-c1cccs1	-2.2%	i	-1%	4.9e-09	i
O=C(NCCN1CCN(Cc2ccccc2)CC1)C1CC(=O)N(C2CCCC2)C1 (stereo not drawn)	-0.5%	i	-6%	1e-09	i
COc1ccc(NC(=O)c2c(F)c(F)c(F)c(F)c2F)cc1Cl	-2.1%	i	15%	5e-09	i
COc1cccc(OCC(=O)Nc2ccccc2C(N)=O)c1	-0.8%	i	5%	1.4e-08	i
O=C(NCCCNC(=O)NC1CCCCC1)NC1CCCCC1	1.0%	i	8%	1e-09	i
CC(=O)NC1CC2CCCC(C1)N2CC(=O)Nc1ccccc1 (stereo not drawn)	-0.1%	i	2%	1e-08	i
COc1cc(-c2nc(-c3ccc(NC(=O)c4ccc5c(c4)OCO5)cc3)no2)cc(OC)c1OC	1.2%	i	16%	2.8e-09	i
O=C1c2ccccc2C(=O)N1C[C@]1(C(=O)O)NCCS1(=O)=O	-5.4%[11.5 µM]	i	0%[11.4 µM]	1e-09	i
Cc1cccc(NC(=O)CSc2nnc(-c3ccncc3)n2C)c1	1.3%	i	4%	1e-09	i
Cc1cc(Br)ccc1NC(=O)C1CCCO1 (stereo not drawn)	2.5%	i	0%	1e-09	i
CCN(C(=O)c1c(-c2ccccc2)noc1C)c1ccccc1	-0.2%	i	10µM*	1e-09	i
O=C(c1cc(-c2ccccc2O)on1)N1CCc2ccccc2C1	-2.0%	·	-12%	·	·
O=S(=O)(N1CCCCC1)N1CCCN(S(=O)(=O)N2CCCCC2)CC1	-1.9%	i	·	2.5e-08	i

Some of the entries so far, in markdown:
| molecule | AID923 | Resorufin autofl | TSHR ag | A647 fluor | A488 fluor |
| --- | --- | --- | --- | --- | --- |
| O=C1c2ccccc2C(=O)N1C[C@]1(C(=O)O)NCCS1(=O)=O | -5.4%[11.5 µM] | i | 0%[11.4 µM] | 1e-09 | i |
| COc1cccc(OCC(=O)Nc2ccccc2C(N)=O)c1 | -0.8% | i | 5% | 1.4e-08 | i |
| Cc1cccc(NC(=O)CSc2nnc(-c3ccncc3)n2C)c1 | 1.3% | i | 4% | 1e-09 | i |
| CCN(C(=O)c1c(-c2ccccc2)noc1C)c1ccccc1 | -0.2% | i | 10µM* | 1e-09 | i |
| O=C(NCCCNC(=O)NC1CCCCC1)NC1CCCCC1 | 1.0% | i | 8% | 1e-09 | i |
| O=S(=O)(N1CCCCC1)N1CCCN(S(=O)(=O)N2CCCCC2)CC1 | -1.9% | i | · | 2.5e-08 | i |
| O=C(NCCN1CCN(Cc2ccccc2)CC1)C1CC(=O)N(C2CCCC2)C1 (stereo not drawn) | -0.5% | i | -6% | 1e-09 | i |

Going on with the list.
SMILES	AID923	Resorufin autofl	TSHR ag	A647 fluor	A488 fluor
COc1cccc(C(=O)Cn2c(=O)n(CC3CCCO3)c(=O)c3ccccc32)c1 (stereo not drawn)	-1.0%	i	·	6.7e-09	i
O=C(Nc1ccc(F)cc1)c1cccc2c1C(=O)N(Cc1ccccn1)C2	-0.1%	i	?	1.1e-08	i
CN1CCN(CCCBr)CC1	-2.1%[11.5 µM]	i	25%[11.4 µM]	1.4e-09	i
CC(NC(=O)c1ccc(Cl)cc1)C(=O)N1CCCCC1 (stereo not drawn)	3.4%	·	-6%	·	·
CCCN1C2CCCC1CC(NC(=O)c1ccc(F)cc1)C2 (stereo not drawn)	-0.4%	i	-5%	1e-09	i
Cc1cc(C(=O)Nc2c(C)nn(Cc3ccccc3Cl)c2C)no1	0.1%	i	-5%	1.3e-08	i
COc1ccc(Cl)cc1C(=O)Nc1nnn(C)n1	1.6%	i	-1%	9.8e-09	i
Cn1c(N2CCCCC2)nc2c1c(=O)n(Cc1cccc(Br)c1)c(=O)n2C	-0.9%	i	?	1.7e-08	i
COc1ccc(C(=O)N2CCCC2)cc1	4.0%	·	-6%	·	·
N=C1C(c2ccccc2)=C(O)CN1c1ccccc1N1CCOCC1	-1.0%	i	?	2.6e-08	i
CC(=O)Nc1cccc(Oc2cc(C#N)c(C#N)cc2N2CCCCCC2)c1	5.7%	i	·	6.2e-09	i
COC(=O)c1ccc(C2CC(=O)Nc3cc(OC)c(OC)c(OC)c32)cc1 (stereo not drawn)	-2.7%	i	27%	2.9e-08	i
CCOC(=O)N1CCN(C(=O)CSc2cc(C)nc3c(-c4ccccc4OC)c(C)nn23)CC1	0.3%	i	5%	1.8e-08	i
O=C(NCc1ccc(F)cc1)c1cccc(S(=O)(=O)N2CCCC2)c1	-0.9%	i	5%	1e-09	i
C(#Cc1ccccc1)CN1CCN(c2ccccn2)CC1	-0.6%	i	-3%[11.4 µM]	1e-09	i
Cc1ccnc(NS(=O)(=O)c2ccc(NC(=O)Cc3cccs3)cc2)n1	1.4%	·	-1%[11.4 µM]	·	·
Cc1nc(NCC2CCCO2)c2nnn(Cc3ccccc3)c2n1 (stereo not drawn)	-0.5%	i	-2%	1e-09	i
CN(C(=O)c1ccccn1)c1nnc(-c2ccncc2)s1	3.2%	i	0%	1e-09	i
O=C(NCc1cccs1)c1csc2c1CCCCC2	0.1%	i	1%[11.4 µM]	2.5e-08	i
CN(C)c1nc(SCCOC(=O)Nc2ccccc2)nc(N(C)C)n1	-0.5%	i	·	1.3e-08	i
CCCC(=O)Nc1ccccc1N1CCN(C(=O)c2ccccc2)CC1	0.4%	i	?	1.9e-08	i
COc1ccc2[nH]c(=O)c(CN(C(=O)COc3ccccc3)C(C)C)cc2c1	0.5%	i	·	4.4e-09	i
Cc1ccc2[nH]c(=O)c(CN(Cc3nnnn3Cc3ccccc3)C3CCCC3)cc2c1	11%	i	20%	2.5e-08	i
FC(F)(F)c1ccccc1-c1cc(NCc2cccs2)ncn1	1.8%	i	?	9.9e-09	i
CCOC(=O)C(CO)(NC(C)=O)C(=O)OCC	0.6%	i	1%	6.9e-09	i
c1cn(CCCNC2=NCCCCC2)cn1	0.6%	i	-2%	3.8e-08	i
NC(=O)CSc1oc(-c2cccs2)nc1S(=O)(=O)c1ccccc1	0.4%	i	-3%	4.2e-08	i
Cc1c(Cl)c(C(F)(F)F)nn1CC(=O)N1CCSCC1	·	i	·	3.5e-08	i
Cc1c(C(=O)OC(C)CCN(C)C)oc2ccccc12 (stereo not drawn)	0.7%	i	7%	1e-09	i
c1ccc(CSc2nnc(NC3=NCCCCC3)s2)cc1	0.0%	i	18%	3.6e-08	i
CCCn1c(SCC(=O)Nc2nnc(C)s2)nnc1-c1ccoc1C	0.4%	i	-2%	6.1e-09	i
O=C1CNC(=O)N1Cc1ccc(Br)cc1	0.2%	i	-20%	1.8e-09	i
O=C(c1ccc(CN2CCOCC2)cc1)N1CCC(Cc2ccccc2)CC1	2.7%	·	16%	·	·
Cc1cc(NC(=O)CCCC(=O)O)nc(C)n1	-0.8%	i	1%	1e-09	i
Cc1nn(-c2ccccc2)c(N2CCCCC2)c1/C=N/O	0.9%	·	11%	·	·
S=c1nc(C2CC2)[nH]c2ccccc12	0.7%	i	?	1e-09	i
CC(C)NC(=O)NC(=O)COc1cccc2c1OC(C)(C)C2	-0.1%	i	3%	4.6e-09	i
CCCC(=O)NCCc1nc2ccccc2n1CCC	-2.7%	·	6%	·	·
COC(=O)CN(c1ccccc1OC)S(=O)(=O)c1ccccc1	0.3%	i	·	3e-08	i
CC(C)CNC(=O)c1cccc(NC(=O)C2CCCO2)c1 (stereo not drawn)	1.5%	i	-2%	2e-09	i
COc1ccc(Nc2cc(C(=O)NCCCN3CCN(C)CC3)c3ccccc3n2)cc1OC	0.5%	i	?	2.5e-08	i
CCCCOC(=O)CSc1nc2c(cc1C#N)C(=O)CC(C)(C)C2	-2.1%	i	?	2.8e-08	i
COCc1c(C(=O)OCC(=O)N2c3ccccc3CC2C)oc2ccccc12 (stereo not drawn)	0.4%	i	9%	1.8e-08	i
COc1ccc(NC(=O)c2ccco2)cc1NC(=O)c1cccnc1	1.2%	i	-3%	1e-09	i
Cn1cccc1C(=O)N1CCC2(CCCN(c3ccc(-c4ccccc4)cc3)C2)CC1	1.6%	i	7%	2e-08	i
O=C1C2CCC(C(O)C2)N1Cc1ccccc1 (stereo not drawn)	-0.1%	i	?	1e-09	i
COc1ccc(Nc2oc(COc3cccc(C)c3)nc2C#N)cc1	-1.2%	i	13%	1e-09	i
CC(C(=O)N(C1CC1)C1(C(=O)Nc2ccccc2)CCCC1)N1C(=O)c2ccccc2C1=O (stereo not drawn)	0.0%	i	?	2.4e-08	i
Cc1cc(Nc2ccccc2F)n2ncnc2n1	3.3%	·	3%	·	·
O=C(CSc1ncnc2ccccc12)NCc1ccco1	0.5%	i	-4%	2.7e-08	i
COc1ccccc1N(CC(=O)Nc1ccccc1C(=O)NC(C)C)S(C)(=O)=O	-1.1%	·	5%[11.4 µM]	·	·
CCOC(=O)c1ccccc1NC(=O)CSc1nccn1C	-0.3%	i	8%[11.4 µM]	2.3e-08	i
